Screens deposited in PubChem BioAssay by National Center for Advancing Translational Sciences (NCATS).
Marburg entry inh = inhibitors of Marburg virus binding or cell entry. actives 1.8% (n = 300,000). Potency, µM (titrated, usually from 37.8 µM), inactives show at the highest dose activity change, negative = inhibition, usual class: inhibitors. Marburg virus pseudotyped entry inhibition, cell reporter; control for the full effect not named in the record; about a third of the inactives were read at about 46 µM; active = well fitted inhibition curve with a large enough effect; inconclusive = small, poorly fitted or top-dose-only effect, or effect the other way; inactive = flat fitted curve, though single readings scatter; tested in HEK293 cells; about a fifth of its hits are not listed in these tables; further: luciferase read-out
The depositor's hits bear a star; ? = inconclusive; & = joins results of further samples; [ ] = dose if it differs, or a comment. On the % scale 0 is the no-effect control and ±100 the full control effect; potency means the concentration at half of the fitted maximal effect. An excerpt; rates above refer to the full screens.

SMILES	Marburg entry inh
COC(=O)NC(c1cccc(C)c1)C(C(C)=O)C(=O)OC (stereo not drawn)	-1.1%[14.2 µM]
COC(=O)[C@@H]1CC[C@H](C)[C@@H](c2ccc(C)cc2)N1C(=O)c1ccc(C=NO[C@H](C)CN2CCCc3nc(C)c(C)cc32)cc1	?
COc1cccc(O[C@H]2C=C[C@@H](c3ccccc3)O[C@H]2CO)c1	4.1%[14.2 µM]
C=CCN1c2ccccc2[C@]23CCC(=O)N(CCCOC(C)C)C2=NC(C(=O)OC)=C(C(=O)OC)[C@H]13	-10.2%[14.2 µM]
N[C@@H]1C=CC=C(C(=O)O)C1	-3.6%
CC(=O)OC[C@H]1O[C@H](C#Cc2ccccc2Cl)C=C[C@H]1OC(C)=O	-1.2%[14.2 µM]
CCOC(=O)N/N=C1\C[C@@H](O)[C@@H](O)[C@@H]2[C@@H]3C(=O)N(Cc4ccc5c(c4)OCO5)C(=O)[C@@H]3CC[C@H]12	-1.5%[14.2 µM]
O=C(N/N=C1\C[C@@H](O)[C@@H](O)[C@@H]2[C@@H]3C(=O)N(C[C@@H]4CCCO4)C(=O)[C@@H]3CC[C@@H]12)OCc1ccccc1	-4.7%[14.2 µM]
C=CCOC(=O)C(C(C)=O)[C@@H](NC(=O)OC)c1ccc(Cl)cc1 (stereo partly drawn)	-10.3%[14.2 µM]
CCN1C(=O)[C@H]2[C@H]3[C@H](O)[C@H](O)C/C(=N/OCC[C@H]4C=C[C@H](OC(C)=O)[C@@H](COC(C)=O)O4)[C@@H]3CC[C@@H]2C1=O	-14.6%[14.2 µM]
CC1(C)CC(=O)C2=C(C1)O[C@@]1(CCCCN3C(=O)c4ccccc4C3=O)Cc3c(ccc4ccccc34)[C@H]2O1	-26.8%[14.2 µM]
COc1cccc([C@@H]2Oc3ccc(OC)cc3[C@H](O)[C@@H]2O)c1	-6.9%[14.2 µM]
C=CCN1C(=O)[C@@]2(CC(C)=CC[C@@H](C)O2)c2c(Br)cccc21	3.2%[14.2 µM]
CC(=O)OC[C@H]1O[C@H](C#Cc2ccc(F)cc2F)C=C[C@H]1OC(C)=O	?
Cc1cc(C)n([C@@H]2CCCC[C@H]2OC(=O)c2ccccc2)n1	-7.0%[46.1 µM]
C=CCO[C@@H]1C=C[C@@H](c2ccccc2)O[C@@H]1COC	18.3%[14.2 µM]
O=C(C[C@@H](c1ccco1)S(=O)(=O)c1ccccc1)c1ccc(F)cc1	3.7%
CCOC(=O)c1c(C)[nH]c(/C(C)=N\O)c1C	?
CCOC(=O)N/N=C1\C[C@@H](O)[C@@H](O)[C@@H]2[C@@H]3C(=O)N(c4ccc(F)cc4F)C(=O)[C@@H]3CC[C@@H]12	-21.5%[14.2 µM]
Cc1cc2c(nc1C)CCCCN2C[C@H](C)O/N=C/[C@@H](C)[C@H](OCc1ccccc1)C(C)C	?
Cc1c(Cl)cccc1N1C(=O)[C@@H]2[C@H](ON(c3ccccc3)[C@H]2c2cccnc2)C1=O	1.6%
C[C@H](NC(=O)CSc1nc2c(cc1C#N)CN(C)CC2)c1ccccc1	17.7%
COc1cc(OC)c2c(c1)OC1Cc3cc(OC)c(OC)cc3C2O1 (stereo not drawn)	?
CC1(C)O[C@H]2O[C@@H]([C@H](O)CON3C(=O)c4ccccc4C3=O)[C@H](O)[C@H]2O1	?
C=CCN1C=C2C(=O)C(C)(OC(=O)c3ccco3)C(=O)C(C=C)=C2C=C1C1CC1 (stereo not drawn)	?
COc1cccc(CC(=O)N2CCc3nc(COc4ccccc4)c4c(c3C2)CO[C@@H](C)C4)c1	-8.6%&-8.6%&-8.6%[14.2 µM]
COCCOC(=O)C1=C(C)OC(N)=C(C#N)[C@H]1c1ccco1	-2.4%
CN(C)c1ccc([C@H]2[C@@H]3C(=O)N(c4ccc(C(=O)O)cc4)C(=O)[C@H]3ON2c2ccccc2)cc1	-1.2%[46.1 µM]
COc1ccc(OC)c([C@H]2/C(=C(\O)c3ccc(C)cc3)C(=O)C(=O)N2Cc2ccco2)c1	-23.6%[46.1 µM]
O=C(NCCN1CCOCC1)c1cc2n(n1)[C@@H](C(F)(F)F)C[C@H](c1ccc(F)cc1)N2	27.9%
CC=Cc1cc2ccccc2c2c(C(=O)OC)c(C(=O)OC)c(C(=O)OC)n12	?
C#CCCCO/N=C1/C[C@@H](O)[C@@H](O)[C@@H]2[C@@H]3C(=O)N(C4CCCCC4)C(=O)[C@H]3CC[C@H]12	?
O=S1(=O)N[C@@H](Cc2ccccc2)COc2cc(N3CCCCC3)ccc21	?
COC(=O)CC1c2ccccc2C(Cc2ccc(OC)cc2)=C(C)N1C(=O)OC (stereo not drawn)	0.3%&-19.0%&0.3%[14.2 µM]
COCCCNC(=O)[C@@H](C#N)c1nc2ccccc2nc1N1CCN(Cc2ccccc2)CC1	3.2%
C[C@H]1[C@H](N=[N+]=[N-])[C@H](O)CCO[C@@H]1c1ccccc1	13.1%[14.2 µM]
Cc1cccc(C)c1N1C(=O)[C@@H]2[C@H](ON(c3ccccc3)[C@H]2c2ccncc2)C1=O	-1.4%
O=C(CCCN1C(=O)c2ccccc2C1=O)N1CC[C@@H](c2ccccc2)C1	0.3%
CC(CCN1CCCc2nc(C)c(C)cc21)=NO[C@@H](C)CN1CCCCc2nc(C)c(C)cc21	-28.4%[14.2 µM]
CC(C)=CCCC(C)=CCN1C(=O)[C@]2(O[C@H](COc3ccccc3)CC3=CCCC32)c2c(Br)cccc21 (stereo partly drawn)	-3.0%[14.2 µM]
COc1cc2c(c(OC)c1OC)[C@@]1(c3ccccc3)CCCC[C@H]1[C@@H]2NC(=O)C(F)(F)F	12.7%[14.2 µM]
CCCCCCCc1cc2ccccc2c2c(C(=O)OC)c(-c3ccccc3)c(C(=O)OC)n12	?
CC(C)CN1Cc2cc(Br)ccc2Oc2ccc(Cl)cc2S1(=O)=O	?
O=C(O)C[C@H](NC(=O)COc1ccc(Cl)cc1Cl)C(=O)O	0.5%
C=C=CCCN1C(=O)NC(c2ccccc2)C(C(=O)OC)=C1C (stereo not drawn)	-18.5%[14.2 µM]
COC(=O)N1C(C)=Cc2ccccc2C1CC(C)=CC(C)=O (stereo not drawn)	?
COC(=O)[C@@]1(C=C2c3ccc(F)cc3[C@@H](OC)[C@@H]2C)[C@@H]2c3ccccc3O[C@@H]21	?
CCCCCCN1C[C@H](O)[C@@H](n2cc(COC(=O)c3ccccc3)nn2)C[C@H]1c1ccc(Cl)cc1	?
CCCCCCC1=Cc2cc(OC)c(OC)cc2C(C(C(C)=O)C(=O)OCC)O1 (stereo not drawn)	?
C=CCN1[C@@H](CC(C)C)COc2c(Cl)cccc2S1(=O)=O	?
CC(=O)OC[C@H]1O[C@H](CCON=C(C)CCN2CCc3nc(-c4ccccc4)c(-c4ccccc4)cc3C2)C=C[C@H]1OC(C)=O	?
Cc1ccc(C[C@H]2CC(=O)N(c3ccc4c(c3)OCCO4)C2=O)cc1	10.6%[46.1 µM]
CCN1C(=NCC(C)C)NC(c2cccc(F)c2)C(C(=O)OC)=C1C (stereo not drawn)	-5.2%[14.2 µM]
CCC[C@H](CCC(=O)Nc1ccc(C(=O)OCC)cc1)C(=O)O	-6.4%
N#Cc1cccc(OCc2cn(CC(=O)c3ccc(O)cc3)nn2)c1	?
COC[C@H]1O[C@H](c2ccccc2)C=C[C@H]1OCC=C(C)C	?
O=C(N/N=C1/C[C@@H](O)[C@@H](O)[C@@H]2[C@@H]3C(=O)N(C4CCCCC4)C(=O)[C@H]3CC[C@H]12)OCc1ccccc1	?
C=CCOC(=O)C(C(C)=O)C(NC(=O)OC)c1ccc(Cl)cc1 (stereo not drawn)	-10.3%[14.2 µM]
C=CCOC(=O)N[C@H](C(C(=O)OC)=C(C)NCc1ccccc1)c1cccc(F)c1	?
CC(C)C[C@H]1COc2c(Cl)cccc2S(=O)(=O)N1Cc1cccc(Cl)c1	?

The list continues.
SMILES	Marburg entry inh
CC(=O)OC[C@H]1O[C@@H](ON=C(C)CCC(=O)OC[C@H]2O[C@H](C#Cc3ccccc3)C=C[C@H]2Oc2ccc(C)cc2)[C@H](OC(C)=O)[C@@H](OC(C)=O)[C@H]1OC(C)=O	9.2%[14.2 µM]
Cc1ccccc1-n1c(=O)/c(=C/c2ccco2)s/c1=C(/C#N)C(=O)Nc1ccccc1	-27.8%
O=C(Nc1ccc2c(c1)OCO2)C1C=CC(Br)O1 (stereo not drawn)	20.3%
CC[N@+]1(C)CCC[C@H](OC(=O)C(O)(c2ccccc2)c2ccccc2)C1	8.8%
c1ccc(-n2ncc3c(NC[C@@H]4CCCO4)ncnc32)cc1	-17.8%
O=C(NCCC[N+]1=CC=N[C@H]1c1ccccc1)N1CCCc2nc(-c3ccc(Br)cc3)ccc21	12.3%[14.2 µM]
CCn1cc(C(=O)O)c(=O)c2c1N=C(C)CC2	-24.0%
CCOC(=O)C1=C(c2ccccc2)NC(SCC(=O)Nc2ccccc2C)=C(C#N)[C@@H]1c1ccco1	23.1µM*
CCc1cc2c(nc1CC)CCN(CCC(C)=NOC[C@@H](O)COCc1ccco1)C2	0.8%[14.2 µM]
Cc1c(O)ccc2c1OCO2	?
COC(=O)[C@H]1[C@@H](c2ccccc2)NC(=O)O[C@@H]1C	?
CC[C@H]1SC2=NC(C)=C(C(=O)OCCOC)[C@@H](c3ccc(C(=O)OC)cc3)N2C1=O	-19.4%
COC(=O)C1=C(C(=O)OC)[C@@H]2N(C)c3ccccc3[C@@]23C[C@@H](C(=O)OC)N(C(=O)NCCBr)C3=N1	?
COC(=O)C[C@@H]1O[C@H]1[C@H](C)[C@@H](OC)C(C)C	-14.5%[14.2 µM]
CC(C)=CCC/C(C)=C/CO/N=C1\C[C@@H](O)[C@@H](O)[C@@H]2[C@@H]3C(=O)N(c4ccc(F)cc4F)C(=O)[C@@H]3CC[C@@H]12	?
COc1cc2c(c(OC)c1)[C@H](C=Cc1ccccc1)[C@@H]([C@H](O)CO)OC2	17.0%[14.2 µM]
c1ccc(CCc2nc(-c3ccccc3)oc2NC2CCCCC2)cc1	?
C#CCCCO/N=C1\C[C@@H](O)[C@@H](O)[C@@H]2[C@@H]3C(=O)N(Cc4ccccc4)C(=O)[C@@H]3CC[C@H]12	11.0%[14.2 µM]
CCN1C(N(C)CCc2c[nH]c3ccccc23)=NC(c2cccc(C(F)(F)F)c2)C(C(=O)OC)=C1C (stereo not drawn)	?
O=c1n(CCCN2CCN(C3CCCC(Cl)C3)CC2)nc2ccccn12 (stereo not drawn)	40.3%&40.3%
Cc1ccc([S+](=O)([O-])N[C@@H]2COC(=O)CC=C[C@H](C)COC(=O)N[C@@H](C)C(=O)CC=C[C@H]2C)cc1	11.3%[14.2 µM]
CCCCCCCCCCCCCCCCCC(=O)NC[C@@H](COP(=O)([O-])OCC[N+](C)(C)C)OCC	?
O=C(/C=C\c1ccc(O)cc1)c1ccc(O)cc1O	10µM*
COc1ccc(COC(=O)N/N=C2/C[C@@H](O)[C@@H](O)[C@@H]3[C@@H]4C(=O)N(C5CCCCC5)C(=O)[C@H]4CC[C@@H]23)cc1	?
Cc1ccc2[nH]c3nc(CCCn4ccnc4-c4ccccc4)nnc3c2c1	3.9%&3.9%[14.2 µM]
CCCCOC(OCCCC)C(O)CSc1ccc2ccccc2c1 (stereo not drawn)	-28.4%[14.2 µM]
COC(=O)C/C=C\[C@@H](C)[C@@H](/C=N\OC[C@@H]1O[C@H](c2ccccc2)C=C[C@@H]1Oc1ccc(OC)cc1)NS(=O)(=O)c1ccc(C)cc1	1.0%[14.2 µM]
CC(=O)OC[C@H]1O[C@@H](ON=C(C)CCN2CCCCc3nc(C)c(C)cc32)[C@H](OC(C)=O)[C@@H](OC(C)=O)[C@H]1OC(C)=O	1.0%[14.2 µM]
O=C1OCCN/C1=C/C(=O)c1ccccc1	4.8%[14.2 µM]
NCC[C@H]1CCC[C@H](CCN)N1	-3.7%
COCCN1C(=O)CC[C@@]23C1=NC(C(=O)OC)=C(C(=O)OC)[C@@H]2N(CC=C(C)C)c1ccccc13	-13.6%[14.2 µM]
CCC12C=C(C=Cc3ccccc3)C(CC)(C1)C(c1ccccc1)CC2=O (stereo not drawn)	13.1%[14.2 µM]
O[C@@H]1CN(CC2CCCCC2)[C@@H](c2ccccc2)C[C@@H]1n1cc(C2CC2)nn1	?
CCCNC(=O)OC[C@H]1O[C@@H](CCO/N=C2/[C@H]3O[C@@H]3[C@@H](O)[C@H]3[C@H]2CCn2c(=O)n(-c4ccccc4)c(=O)n23)C=C[C@@H]1Oc1ccc(OC)cc1	?
Nc1ncnc2c1ncn2[C@@H]1CCCO1	?
C=CCC12OC3(OC)CC1[C@H](C)[C@@H](c1ccccc1)C2[C@]3(O)CC=C (stereo partly drawn)	6.4%[14.2 µM]

In the list so far, ten have a Cl atom:
SMILES	Marburg entry inh
CC(=O)OC[C@H]1O[C@H](C#Cc2ccccc2Cl)C=C[C@H]1OC(C)=O	-1.2%[14.2 µM]
C=CCOC(=O)C(C(C)=O)[C@@H](NC(=O)OC)c1ccc(Cl)cc1 (stereo partly drawn)	-10.3%[14.2 µM]
Cc1c(Cl)cccc1N1C(=O)[C@@H]2[C@H](ON(c3ccccc3)[C@H]2c2cccnc2)C1=O	1.6%
CC(C)CN1Cc2cc(Br)ccc2Oc2ccc(Cl)cc2S1(=O)=O	?
O=C(O)C[C@H](NC(=O)COc1ccc(Cl)cc1Cl)C(=O)O	0.5%
CCCCCCN1C[C@H](O)[C@@H](n2cc(COC(=O)c3ccccc3)nn2)C[C@H]1c1ccc(Cl)cc1	?
C=CCN1[C@@H](CC(C)C)COc2c(Cl)cccc2S1(=O)=O	?
C=CCOC(=O)C(C(C)=O)C(NC(=O)OC)c1ccc(Cl)cc1 (stereo not drawn)	-10.3%[14.2 µM]
CC(C)C[C@H]1COc2c(Cl)cccc2S(=O)(=O)N1Cc1cccc(Cl)c1	?
O=c1n(CCCN2CCN(C3CCCC(Cl)C3)CC2)nc2ccccn12 (stereo not drawn)	40.3%&40.3%
